Screens deposited in PubChem BioAssay by several laboratories.
Insulin prom inh: TRM-6 insulin promoter activity inhibition. inhibition, % at 2 µM. TRM-6 cells (human fetal islet line), insulin promoter-eGFP reporter, imaging; reporter expression induced with tamoxifen. 0.9% of 130,000 active;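 active = inhibition above the mean plus 3 SD, with well images judged a real hit on visual review, cut at about 60% in these data, passing the limit was not always enough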
HSV replic up: HSV replication enhancement. HSV replication augmentation in cells, fold increase. maximum fold increase. 0.005% of 220,000 active. AID 1956;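 active = peak rise of 1.5-fold or more in the series; tested in PC3 cells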;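 note: first round at 10 µM; read as green reporter fluorescence; hits show the peak of a series up to 25 µM; 1 = signal of infected wells without compound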
PKD1 inh: inhibitors of human PKD1 kinase; Q15139; PKD1 kinase fluorescence polarization assay; inhibition, %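 (about 10 µM by stock and volumes)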; 0.056% of 200,000 active;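 active = inhibition of 50% or more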;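 note: controls were vehicle for no effect and a reference inhibitor for full effect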
GALR2 ag: activates the human galanin receptor 2; 0.48% of 140,000 active; GALR2-expressing cells, agonist activation read-out; activation, %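 (tested at 5 µM)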;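 active = above mean plus 3 SD of all compounds, about 5% in these data, not always enough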;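 note: 0% = vehicle buffer wells and 100% = reference agonist at full effect; tested in CHO reporter cells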
Target sequence (O43603 whole entry, looked up): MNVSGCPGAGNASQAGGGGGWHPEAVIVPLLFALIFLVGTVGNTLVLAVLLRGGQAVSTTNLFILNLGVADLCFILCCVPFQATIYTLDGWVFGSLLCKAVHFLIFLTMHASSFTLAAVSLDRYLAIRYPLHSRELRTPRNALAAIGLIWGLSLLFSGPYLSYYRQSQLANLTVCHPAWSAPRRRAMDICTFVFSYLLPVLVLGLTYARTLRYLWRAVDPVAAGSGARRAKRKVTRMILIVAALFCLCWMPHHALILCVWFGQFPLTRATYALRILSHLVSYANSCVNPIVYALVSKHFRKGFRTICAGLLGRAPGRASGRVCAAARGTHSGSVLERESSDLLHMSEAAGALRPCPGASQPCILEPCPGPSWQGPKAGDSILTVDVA
RGS16-Gao HTS: RGS16-Galphao interaction regulator (human); 0.38% of 220,000 active; AID 1441; bead-based flow cytometry RGS16-Galphao binding, fluorescence; actives lie on both sides; binding response (% of control), % at 10 µM; O15492+P09471;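 active = below 25% or above 175%, edge rows of some plates excepted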;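 note: Galphao activated by GDP with aluminum fluoride before binding; 100% = wells without compound and 0% = beads without RGS; some results beyond the cut were filed as inactive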
Target sequence (O15492 whole entry, looked up): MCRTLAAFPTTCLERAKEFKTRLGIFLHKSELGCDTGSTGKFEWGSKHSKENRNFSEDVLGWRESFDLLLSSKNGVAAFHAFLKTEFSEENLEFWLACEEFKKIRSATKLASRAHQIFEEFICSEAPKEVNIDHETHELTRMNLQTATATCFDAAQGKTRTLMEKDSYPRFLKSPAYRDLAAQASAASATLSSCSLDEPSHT
Target sequence (P09471 whole entry, looked up): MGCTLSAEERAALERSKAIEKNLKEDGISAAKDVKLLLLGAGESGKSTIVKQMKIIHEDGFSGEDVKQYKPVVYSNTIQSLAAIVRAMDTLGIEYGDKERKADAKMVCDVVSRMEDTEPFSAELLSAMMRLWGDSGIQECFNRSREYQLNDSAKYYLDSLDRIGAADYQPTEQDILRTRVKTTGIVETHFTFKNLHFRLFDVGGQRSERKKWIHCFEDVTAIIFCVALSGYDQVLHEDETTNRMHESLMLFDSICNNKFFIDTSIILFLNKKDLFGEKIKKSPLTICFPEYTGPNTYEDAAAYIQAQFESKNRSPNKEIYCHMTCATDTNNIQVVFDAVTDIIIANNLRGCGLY
Insulin prom inh cell count: recorded beside Insulin prom inh, whose call it bears; normalized cell count, %; measured here: cell count, toxicity; reference of the scale not given here;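 cells exposed to compound for 48 h; stained nuclei by imaging scaled within each plate; lower means fewer cells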
HSV replic up primary fold: further read-out of HSV replic up, marked with its call; fold increase; compound at 10 µM; measured here: primary screen fold increase 10 uM; tested in PC3 cells;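 GFP signal in the first replicate; 1 = infected wells without compound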
The depositor's hits bear a star; i = inactive; . = not tested or not shown.

molecule | Insulin prom inh | Insulin prom inh cell count | HSV replic up | HSV replic up primary fold | PKD1 inh | GALR2 ag | RGS16-Gao HTS
CCCc1nc(SCC(=O)Nc2cc(C)on2)c2ccccc2n1 | 17 | 71 | i | 0.86 | 10 | -2.9 | 99
O=C(CSc1oc(-c2cccs2)nc1S(=O)(=O)c1ccc(F)cc1)NCC1CCCO1 (configuration not stated) | . | . | i | 0.86 | 1 | -2.9 | 111
COCCn1c(-c2ccco2)nc2nc3ccccc3nc21 | . | . | . | . | -1 | 0.9 | 93
CCOC(=O)NC(CC(=O)O)c1ccc(OC)c(OC)c1 (configuration not stated) | 6 | 110 | i | 0.95 | -1 | -0.8 | 104
CC1(C)Cc2ccccc2C(=C(C#N)C#N)N1 | 14 | 89 | i | 0.93 | -1 | -1.1 | 34
CC(C)n1c(=S)[nH]c2ccccc21 | . | . | i | 1.1 | 4 | -1.8 | 100
CCCn1nc(NS(=O)(=O)c2ccccc2)c2cc3ccccc3nc21 | . | . | i | 0.95 | . | . | 96
CC1CCC(NC(=O)c2ccc3nc[nH]c3c2)CC1 (configuration not stated) | 29 | 185 | i | 1.1 | 14 | -2.0 | 90
O=C(CC(Nc1cccc(Cl)c1Cl)C(=O)OCC(=O)c1cccs1)c1ccccc1 (configuration not stated) | . | . | i | 1 | -3 | 0.0 | 99
O=C(CS(=O)(=O)Cc1ccccc1)Nc1ccc2c(c1)OCO2 | 0 | 124 | i | 1 | 2 | . | 98
N/C(CCS(=O)(=O)c1ccc(Cl)cc1)=N\OC(=O)c1ccccc1Cl | . | . | i | 0.89 | . | . | 99
Cc1ccccc1OCc1nnc(SCC(=O)N2c3ccccc3Sc3ccc(Cl)cc32)o1 | 18 | 110 | i | 0.68 | 4 | -2.0 | 102
CCCCNC(=O)[C@H](Cc1c[nH]c2ccccc12)NC(=O)c1ccccc1Cl | -109 | 60 | i | 0.99 | -5 | -0.8 | 108
Cn1cc(CN2C[C@]3(C)C[C@H]2CC(C)(C)C3)c(-c2ccc3c(c2)OCCO3)n1 | . | . | i | 0.96 | 5 | . | 94
CCOC(=O)c1cc(CC)sc1NC(=O)c1ccc(N2CCOCC2)c([N+](=O)[O-])c1 | . | . | i | 0.88 | -4 | -2.3 | 104
O=C(CCn1c(=S)[nH]c2ccccc2c1=O)NCC1CCCO1 (configuration not stated) | -55 | 114 | i | 0.81 | -5 | -2.4 | 103
COC(=O)c1sccc1-n1cc(C#N)c(=O)n(C)c1=O | . | . | i | 1 | . | . | 89
COc1cc(NC(=O)c2cc3cccc(OC)c3o2)cc(C(=O)Nc2cccc(C(F)(F)F)c2)c1 | . | . | i | 0.66 | . | . | 99
COc1ccccc1OCc1nnc(SCC(=O)N2CCCCC2)n1-c1ccccc1 | 36 | 53 | i | 0.99 | -12 | 0.5 | 105
COc1cc(-c2nnc(COC(=O)CSc3cc(C)c4ccccc4n3)o2)cc(OC)c1OC | . | . | i | 0.82 | 7 | -0.9 | 101
OCCN(CC#CC(O)(c1ccccc1)c1ccccc1)CCO | . | . | i | 0.97 | . | . | 106
C[C@@]12CCC=C[C@H]1[C@H](c1ccc(C(F)(F)F)cc1)N(Cc1ccccc1)C2=O | . | . | i | 0.91 | . | . | 97
CCOC(=O)N1CCC(NS(=O)(=O)c2ccc3c(c2)C(C)(C)C(=O)N3C)CC1 | 43 | 56 | i | 0.99 | 1 | -5.4 | 103
CCC(CC)C(=O)Nc1c2cnn(-c3ccccc3)c2nc(=O)n1-c1ccccc1 | . | . | . | . | -6 | -1.0 | 109
Cc1cc2cc(CN(Cc3cccs3)Cc3nnnn3CC3CCCO3)c(=O)[nH]c2cc1C (configuration not stated) | . | . | i | 0.87 | -12 | 1.0 | 99
Cc1c(NC(=O)C(=O)/C=C(/O)c2ccccc2)c(=O)n(-c2ccccc2)n1C | 35 | 65 | i | 1.1 | -4 | 0.5 | 98
Cc1nc(NCc2ccco2)c(C#N)c2c1COC(C)(C)C2 | -26 | 55 | i | 0.83 | -6 | -0.7 | 102
Cc1ccc(C(=O)NNC(=O)CSc2nnc(CNc3ccc(F)cc3)n2C)cc1 | . | . | i | 0.97 | 4 | . | 111
CC(=O)c1cccc(NC(=O)Nc2csc3c2CCCC3)c1 | . | . | i | 1.1 | -6 | . | 98
Cc1ccc(N(CC(=O)NC2CCCC2)C(=O)c2ccc(C)s2)cc1 | . | . | i | 1 | -6 | . | 100
CC(=O)c1cccc(NC(=O)C2(c3ccccc3)CC2(Cl)Cl)c1 (configuration not stated) | . | . | i | 0.77 | 1 | . | 103
COC(=O)c1cc2ccccc2oc1=O | 6 | 135 | i | 0.89 | -6 | -2.5 | 100
O=C(Nc1ccccn1)c1onc2c1CCCC2 | . | . | i | 1 | -5 | -0.3 | 84
CCn1c2ccccc2c2cc(CN3CCN(Cc4cc(OC)ccc4O)CC3)ccc21 | -91 | 30 | i | 0.88 | -2 | . | 98
CC[C@@H](C)[C@H](NS(=O)(=O)c1ccc(C)cc1)C(=O)N1CCC(C(=O)NCC(=O)O)CC1 | 23 | 111 | i | 0.99 | -11 | -1.8 | 111
O=C(CSc1ccc(Cl)cc1)NN=C1CCCCCC1 | . | . | i | 0.99 | -9 | . | 101
COCCn1c(C)cc(C(=O)COC(=O)c2cc3c(s2)CCC3)c1C | . | . | i | 1.1 | -8 | -2.1 | 96
CCC(NC(=O)N(Cc1ccccc1)Cc1ccc2c(c1)OCO2)(C(F)(F)F)C(F)(F)F | -47 | 145 | i | 0.9 | 0 | -0.2 | 110
COc1ccccc1NC(=O)CSCc1nc2ccccc2[nH]1 | . | . | i | 0.95 | -5 | -1.4 | 97
COCCCNC(=O)c1ccccc1NS(=O)(=O)c1ccc(C)cc1 | 38 | 81 | i | 0.97 | 4 | -0.3 | 108

Rewritten with values under each structure: four of the compounds above
Results follow in this order: Insulin prom inh | Insulin prom inh cell count | HSV replic up | HSV replic up primary fold | PKD1 inh | GALR2 ag | RGS16-Gao HTS
CC(=O)c1cccc(NC(=O)Nc2csc3c2CCCC3)c1
→ . | . | i | 1.1 | -6 | . | 98
CCOC(=O)NC(CC(=O)O)c1ccc(OC)c(OC)c1 (configuration not stated)
→ 6 | 110 | i | 0.95 | -1 | -0.8 | 104
O=C(Nc1ccccn1)c1onc2c1CCCC2
→ . | . | i | 1 | -5 | -0.3 | 84
COCCCNC(=O)c1ccccc1NS(=O)(=O)c1ccc(C)cc1
→ 38 | 81 | i | 0.97 | 4 | -0.3 | 108

Continued:
molecule | Insulin prom inh | Insulin prom inh cell count | HSV replic up | HSV replic up primary fold | PKD1 inh | GALR2 ag | RGS16-Gao HTS
COC(=O)Cc1ccc(NC(=S)N2CCN(C)CC2)cc1 | . | . | i | 0.84 | -3 | . | 101
COc1ccc(Nc2nc(N3CCCC3)c3ccccc3n2)cc1 | 7 | 120 | i | 0.68 | 0 | 0.6 | 103
CN(CC(=O)NCc1ccco1)S(=O)(=O)c1ccc2c(c1)n(C)c(=O)c(=O)n2C | 21 | 138 | i | 0.89 | 1 | -1.3 | 101
Cc1ccnc(NS(=O)(=O)c2ccc(NC(=O)c3ccc(S(=O)(=O)N(C)C)cc3)cc2)n1 | -14 | 123 | i | 0.93 | -2 | . | 110
CC(NCc1ccc(S(N)(=O)=O)cc1)C(=O)N1c2ccccc2CC1C (configuration not stated) | . | . | i | 0.87 | . | . | 98
CNC(=S)N/N=C(\C)c1ccc(C(C)(C)C)cc1 | . | . | i | 1.1 | -3 | -1.5 | 101
O=C(CCc1ccccc1)NC(=S)Nc1ccccc1Br | . | . | i | 1.1 | -7 | . | 99
CCSc1cc(C)nc2ncnn12 | 11 | 126 | i | 0.99 | -10 | -1.4 | 104
COc1ccccc1CNc1nc2nc3c(c(=O)n2[nH]1)CCC3 | . | . | i | 0.72 | -4 | -0.5 | 105
O=C(/C=C/c1ccco1)NC(=S)Nc1cc(-c2nc3ccccc3s2)ccc1Cl | . | . | i | 1.1 | -9 | -0.4 | 103
CCC(=O)NC(c1ccc(OC)cc1)c1c(O)ccc2ccccc12 (configuration not stated) | . | . | i | 0.83 | -1 | . | 98
O=C(CN(CC1CCCO1)C(=O)CCC(=O)Nc1nccs1)NCc1ccccc1 (configuration not stated) | 11 | 113 | i | 1.1 | 1 | -1.3 | 104
CC1Cc2ccccc2N1C(=O)c1cnc2ccccn2c1=O (configuration not stated) | -6 | 112 | i | 1.1 | -8 | -1.5 | 134
CCOc1cc(/C=N/NC(=O)c2ccc(O)cc2)ccc1Oc1nc(Cl)ncc1F | . | . | i | 0.8 | -4 | . | 98
Cc1cc(C)n(S(=O)(=O)c2ccc(Cl)c(Cl)c2Cl)n1 | . | . | i | 1.1 | -15 | -2.5 | 103
CC(=O)NS(=O)(=O)c1ccc(NC(=O)c2ccc(Br)o2)cc1 | -7 | 109 | i | 0.95 | 5 | -1.1 | 104
Cc1cc(C)nc(NC2=NCCN2C(=S)Nc2c(C)cccc2C)n1 | . | . | i | 0.95 | -11 | . | 97
C=CCn1c(SCc2c(C(=O)OC)sc(N)c2C(=O)OC)nnc1-c1ccc(Br)cc1 | -30 | 70 | i | 0.82 | -7 | -2.5 | 105
COc1ccc(Br)cc1CNC(=O)C1CCN(C(=O)N(C)C)CC1 | 21 | 92 | i | 0.81 | -5 | . | 96
CC1CCCCN1C(=O)Cn1c(=O)oc2ccccc21 (configuration not stated) | 22 | 79 | i | 0.92 | 14 | -0.7 | 102
Cc1cc(-c2n[nH]c(=S)n2/N=C/c2cccc(O)c2)n[nH]1 | . | . | i | 0.93 | . | . | 107
CCCCC(=O)Nc1ccc(C(N)=O)cc1 | 0 | 117 | i | 1 | 3 | -1.9 | 88
Cc1ccc(C(=O)NCCN2CCOCC2)cc1 | 69 | 71 | i | 1.1 | 4 | -0.9 | 93
O=c1oc2c(CN3CCN(CCO)CC3)c(O)ccc2cc1-c1ccccn1 | . | . | i | 0.93 | . | . | 98
O=C(Nc1cccc(C(F)(F)F)c1)C1CCCN(S(=O)(=O)c2cnc[nH]2)C1 (configuration not stated) | 15 | 193 | i | 0.91 | -13 | 0.2 | 100
COc1ccc(/C=N/NC(=O)c2ccc(=O)[nH]n2)cc1OC | . | . | i | 0.96 | -8 | 0.2 | 95
COc1ccc(NC(=O)COC(=O)c2ccc([N+](=O)[O-])o2)cc1Cl | . | . | i | 0.94 | 0 | . | 101
CN(C)/C=C/C(=O)c1ccc(Oc2ccccc2)cc1 | . | . | i | 1 | -2 | . | 104
c1ccc(-c2nnc(SCC3CCCO3)nc2-c2ccccc2)cc1 (configuration not stated) | . | . | i | 0.82 | . | . | 95
COC(=O)c1ccccc1NC(=O)CSc1ncn[nH]1 | . | . | i | 0.95 | . | . | 97
C/C(=C\C(=O)c1ccc(Cl)cc1)NCc1ccc2c(c1)OCO2 | -13 | 65 | i | 1 | -15 | -1.9 | 117
CCOc1ccccc1NC(=O)c1ccc(S(=O)(=O)N(C)C)cc1 | . | . | i | 0.84 | -6 | -1.2 | 103

Arranged by the number under PKD1 inh (descending): 6 of the compounds above.
compound | HSV replic up | HSV replic up primary fold | PKD1 inh | GALR2 ag | RGS16-Gao HTS
Cc1ccc(C(=O)NCCN2CCOCC2)cc1 | i | 1.1 | 4 | -0.9 | 93
CCCCC(=O)Nc1ccc(C(N)=O)cc1 | i | 1 | 3 | -1.9 | 88
CCOc1ccccc1NC(=O)c1ccc(S(=O)(=O)N(C)C)cc1 | i | 0.84 | -6 | -1.2 | 103
COc1ccc(/C=N/NC(=O)c2ccc(=O)[nH]n2)cc1OC | i | 0.96 | -8 | 0.2 | 95
O=C(Nc1cccc(C(F)(F)F)c1)C1CCCN(S(=O)(=O)c2cnc[nH]2)C1 (configuration not stated) | i | 0.91 | -13 | 0.2 | 100
C/C(=C\C(=O)c1ccc(Cl)cc1)NCc1ccc2c(c1)OCO2 | i | 1 | -15 | -1.9 | 117
